Screening data (PubChem)
INS promoter inh: TRM-6 insulin promoter activity inhibition; TRM-6 cells (human fetal islet line), insulin promoter-eGFP reporter, imaging; reporter expression induced with tamoxifen; inhibition, % at 2 µM; hit rate 0.9% among 130,000; AID 1273;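 active = inhibition above the mean plus 3 SD, with well images judged a real hit on visual review, cut at about 60% in these data, passing the limit was not always enough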
GALR2 ag: agonists of human galanin receptor 2 (GALR2) | activation, %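 (tested at 5 µM)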 | hit rate 0.48% among 140,000 | GALR2-expressing cells, agonist activation read-out | O43603 | AID 803;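 active = above mean plus 3 SD of all compounds, about 5% in these data, not always enough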;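 note: 0% = vehicle buffer wells and 100% = reference agonist at full effect; tested in CHO reporter cells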
Target sequence (O43603 whole entry, looked up): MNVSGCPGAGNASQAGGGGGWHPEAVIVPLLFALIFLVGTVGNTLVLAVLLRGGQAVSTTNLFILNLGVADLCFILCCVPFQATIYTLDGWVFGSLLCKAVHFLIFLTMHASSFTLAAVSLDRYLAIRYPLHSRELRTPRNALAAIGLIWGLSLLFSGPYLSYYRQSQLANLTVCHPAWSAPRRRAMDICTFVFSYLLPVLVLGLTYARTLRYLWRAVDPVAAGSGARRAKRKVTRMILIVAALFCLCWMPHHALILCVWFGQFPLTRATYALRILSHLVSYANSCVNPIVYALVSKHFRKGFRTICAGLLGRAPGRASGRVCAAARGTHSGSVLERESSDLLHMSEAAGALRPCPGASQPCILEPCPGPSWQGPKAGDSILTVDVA
PKD1 kinase inh: blocks activity of human protein kinase D1; PKD1 kinase fluorescence polarization assay; inhibition, %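 (about 10 µM by stock and volumes)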; hit rate 0.056% among 200,000;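 active = inhibition of 50% or more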;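 note: controls were vehicle for no effect and a reference inhibitor for full effect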
RGS16-Gao HTS: RGS16-Galphao interaction regulator (human) | O15492+P09471 | bead-based flow cytometry RGS16-Galphao binding, fluorescence; actives lie on both sides | binding response (% of control), % at 10 µM | hit rate 0.38% among 220,000 | AID 1441;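 active = below 25% or above 175%, edge rows of some plates excepted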;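 note: Galphao activated by GDP with aluminum fluoride before binding; 100% = wells without compound and 0% = beads without RGS; some results beyond the cut were filed as inactive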
Target sequence (O15492 whole entry, looked up): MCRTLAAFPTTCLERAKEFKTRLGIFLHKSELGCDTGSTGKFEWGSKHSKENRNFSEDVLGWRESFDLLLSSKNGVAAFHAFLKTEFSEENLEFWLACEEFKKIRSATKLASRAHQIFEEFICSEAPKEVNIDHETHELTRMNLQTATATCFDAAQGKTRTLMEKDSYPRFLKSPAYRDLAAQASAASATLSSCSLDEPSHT
Target sequence (P09471 whole entry, looked up): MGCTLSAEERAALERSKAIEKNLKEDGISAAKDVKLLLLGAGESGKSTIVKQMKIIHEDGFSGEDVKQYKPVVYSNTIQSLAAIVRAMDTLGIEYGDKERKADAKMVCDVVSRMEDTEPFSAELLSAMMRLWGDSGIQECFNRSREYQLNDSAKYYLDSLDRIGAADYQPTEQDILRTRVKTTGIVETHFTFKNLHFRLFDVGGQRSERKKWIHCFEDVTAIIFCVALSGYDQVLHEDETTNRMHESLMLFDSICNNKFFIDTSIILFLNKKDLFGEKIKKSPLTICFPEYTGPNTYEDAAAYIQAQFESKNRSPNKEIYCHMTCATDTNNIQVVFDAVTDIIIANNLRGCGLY
HSV augment: HSV replication enhancement. HSV replication augmentation in cells, fold increase. maximum fold increase. hit rate 0.005% among 220,000. AID 1956;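 active = peak rise of 1.5-fold or more in the series; tested in PC3 cells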;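 note: first round at 10 µM; read as green reporter fluorescence; hits show the peak of a series up to 25 µM; 1 = signal of infected wells without compound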
INS promoter inh cell count: second read-out of INS promoter inh, no call of its own (marks repeat the call); normalized cell count, %; measured here: cell count, toxicity; reference of the scale not given here;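 cells exposed to compound for 48 h; stained nuclei by imaging scaled within each plate; lower means fewer cells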
HSV augment primary fold: also measured in HSV augment; calls as there; fold increase; compound at 10 µM; measured here: primary screen fold increase 10 uM; tested in PC3 cells;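 GFP signal in the first replicate; 1 = infected wells without compound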
Active calls of the source: *.

`CN(Cc1nc2ccccc2c(=O)[nH]1)CC(O)COCc1ccco1` (stereo unspecified) gave GALR2 ag -1.2, PKD1 kinase inh -12, RGS16-Gao HTS 103, HSV augment inactive and HSV augment primary fold 0.94.
Cn1c(CSCc2ccc(Cl)cc2)nnc1SCC(=O)Nc1nccs1 was read as INS promoter inh -44, GALR2 ag -1.9, PKD1 kinase inh 2, RGS16-Gao HTS 109, HSV augment inactive, INS promoter inh cell count 116 and HSV augment primary fold 0.81.
`O=C(Nc1cccc2nsnc12)c1ccc(F)cc1` gave INS promoter inh 13, GALR2 ag -0.3, PKD1 kinase inh -18, RGS16-Gao HTS 103, HSV augment inactive, INS promoter inh cell count 43 and HSV augment primary fold 0.98.
For Cc1ccc(C)n1-c1ccc(C#N)cn1 the results were INS promoter inh 33, PKD1 kinase inh -4, RGS16-Gao HTS 100, HSV augment inactive, INS promoter inh cell count 110 and HSV augment primary fold 0.96.
Screening CCNC(=S)Nc1cc(-c2ccc(Cl)cc2)[nH]n1 returned PKD1 kinase inh 2, RGS16-Gao HTS 102, HSV augment inactive and HSV augment primary fold 0.94.
Cc1ccn2c(CNCC3OCCc4ccccc43)c(C(=O)N3CCCCCC3)nc2c1 (stereo unspecified) was read as PKD1 kinase inh -1, RGS16-Gao HTS 101, HSV augment inactive and HSV augment primary fold 1.1.
`NC(=O)C1C(c2ccccc2)=C1c1ccccc1` gave GALR2 ag -2.2, PKD1 kinase inh -15, RGS16-Gao HTS 99, HSV augment inactive and HSV augment primary fold 0.8.
For O=c1c2ccccc2c(/C=N/n2cnnc2)c(O)n1-c1ccccc1 the results were INS promoter inh 53, GALR2 ag 2.0, PKD1 kinase inh -3, RGS16-Gao HTS 104, HSV augment inactive, INS promoter inh cell count 68 and HSV augment primary fold 0.85.
`CC1CN(CC(O)COc2ccc(C(=O)c3ccccc3)cc2)CC(C)O1` (stereo unspecified) gave GALR2 ag -2.8, PKD1 kinase inh 15, RGS16-Gao HTS 112, HSV augment inactive and HSV augment primary fold 0.88.
For CCN(CC)S(=O)(=O)c1ccc(N2CCCCC2)c(NC(=O)/C=C/c2ccc(OC)c(OC)c2)c1 the results were GALR2 ag 1.2, PKD1 kinase inh 4, RGS16-Gao HTS 97, HSV augment inactive and HSV augment primary fold 1.
`CCN(CC)S(=O)(=O)c1cc(C(=O)NC2CCCCC2)ccc1C` gave INS promoter inh -19, GALR2 ag -1.1, PKD1 kinase inh 5, RGS16-Gao HTS 99, HSV augment inactive, INS promoter inh cell count 119 and HSV augment primary fold 0.92.
Screening Cc1ccc(/C=C/C(=O)NC(=S)N2CCN(c3ccc(F)cc3)CC2)cc1 returned RGS16-Gao HTS 99, HSV augment inactive and HSV augment primary fold 1.
`Cc1ccc(NC(=O)c2c3c(nc4ccccc24)CCC3)cc1` gave INS promoter inh -28, PKD1 kinase inh 3, RGS16-Gao HTS 100, HSV augment inactive, INS promoter inh cell count 129 and HSV augment primary fold 0.93.
`Clc1ccc2c(c1)-c1nnc(Br)n1-c1ccccc1S2` gave INS promoter inh -233, GALR2 ag -1.5, PKD1 kinase inh 2, RGS16-Gao HTS 106, HSV augment inactive, INS promoter inh cell count 71 and HSV augment primary fold 0.82.
Screening CCCCCN(C(=O)NC(=O)Nc1ccccc1OC)S(C)(=O)=O returned GALR2 ag -1.1, PKD1 kinase inh 0, RGS16-Gao HTS 101, HSV augment inactive and HSV augment primary fold 1.2.

The closing two records of the part above lead into the next:
`Clc1ccc2c(c1)-c1nnc(Br)n1-c1ccccc1S2` gave INS promoter inh -233, GALR2 ag -1.5, PKD1 kinase inh 2, RGS16-Gao HTS 106, HSV augment inactive, INS promoter inh cell count 71 and HSV augment primary fold 0.82.
Screening CCCCCN(C(=O)NC(=O)Nc1ccccc1OC)S(C)(=O)=O returned GALR2 ag -1.1, PKD1 kinase inh 0, RGS16-Gao HTS 101, HSV augment inactive and HSV augment primary fold 1.2.
For COCCNC(=S)N/N=C/c1ccc(-c2ccc([N+](=O)[O-])cc2)o1 the results were RGS16-Gao HTS 99, HSV augment inactive and HSV augment primary fold 1.1.
`CCSC1=NCCN1C(=O)C(C)(C)Oc1ccc(Cl)cc1` gave PKD1 kinase inh 1, RGS16-Gao HTS 95, HSV augment inactive and HSV augment primary fold 0.99.
For CCC(=O)c1cccc2c1N=CC1=C(CC(C)(C)CC1=O)N2 the results were INS promoter inh -12, GALR2 ag 1.2, PKD1 kinase inh 7, RGS16-Gao HTS 107, HSV augment inactive, INS promoter inh cell count 165 and HSV augment primary fold 0.92.
For COc1ccc2c(c1)CC/C(=C\c1ccc(OC)c(Cn3cccn3)c1)C2=O the results were INS promoter inh -23, GALR2 ag -1.7, PKD1 kinase inh -1, RGS16-Gao HTS 110, HSV augment inactive, INS promoter inh cell count 122 and HSV augment primary fold 0.9.
COc1ccccc1CNC(=O)COC(=O)C1=COCCO1 was read as INS promoter inh -15, GALR2 ag -2.8, PKD1 kinase inh 2, RGS16-Gao HTS 102, HSV augment inactive, INS promoter inh cell count 88 and HSV augment primary fold 0.98.
For FC(F)(F)c1ccnc(NCc2ccco2)n1 the results were RGS16-Gao HTS 106, HSV augment inactive and HSV augment primary fold 0.65.
For CCOC(=O)C1CCCN(C(=O)COc2ccccc2F)C1 (stereo unspecified) the results were INS promoter inh -35, PKD1 kinase inh -4, RGS16-Gao HTS 97, HSV augment inactive, INS promoter inh cell count 139 and HSV augment primary fold 1.2.
For O=C(CCNC(=O)c1ccc(Br)cc1)Nc1nccs1 the results were INS promoter inh 44, PKD1 kinase inh -7, RGS16-Gao HTS 102, HSV augment inactive, INS promoter inh cell count 104 and HSV augment primary fold 1.1.
Screening COc1cc(C(=O)NC2=C(C#N)CCC2)cc(OC)c1OC returned PKD1 kinase inh -2, RGS16-Gao HTS 99, HSV augment inactive and HSV augment primary fold 0.95.
Screening COC(=O)CNC(=O)C(NC(=O)c1ccc(Cl)cc1)C(C)C (stereo unspecified) returned INS promoter inh -24, GALR2 ag -3.2, PKD1 kinase inh 2, RGS16-Gao HTS 99, HSV augment inactive, INS promoter inh cell count 45 and HSV augment primary fold 0.68.
For CCn1c(-c2cc3ccccc3cc2O)n[nH]c1=S the results were INS promoter inh -33, GALR2 ag -1.1, PKD1 kinase inh -2, RGS16-Gao HTS 100, HSV augment inactive, INS promoter inh cell count 258 and HSV augment primary fold 0.87.
`O=C(C1CCCCC1)N(Cc1nc2sc3c(c2c(=O)[nH]1)CCCC3)Cc1cccs1` gave INS promoter inh 36, GALR2 ag -0.6, PKD1 kinase inh 6, RGS16-Gao HTS 102, HSV augment inactive, INS promoter inh cell count 111 and HSV augment primary fold 0.9.
O=C(CSc1nnc2ccccn12)NCc1ccco1 was read as INS promoter inh 71*, PKD1 kinase inh 6, RGS16-Gao HTS 100, HSV augment inactive, INS promoter inh cell count 54* and HSV augment primary fold 0.85.
CC(C)(C)OC(=O)N1CCC[C@H]1c1nnc(SCc2ccccc2)o1 was read as RGS16-Gao HTS 89, HSV augment inactive and HSV augment primary fold 1.
For Cc1ccc(Cl)cc1N1CCN(Cc2nnnn2C2CCCCC2)CC1 the results were INS promoter inh -79, GALR2 ag -1.0, PKD1 kinase inh 7, RGS16-Gao HTS 101, HSV augment inactive, INS promoter inh cell count 115 and HSV augment primary fold 1.
`O=c1[nH]cnc2nn(-c3ccccc3)nc12` gave GALR2 ag -0.3, PKD1 kinase inh -10, RGS16-Gao HTS 103, HSV augment inactive and HSV augment primary fold 1.1.
CC(=O)Nc1ccc(NC(=O)C2CCCN2/C=C/C(=O)C(F)(F)F)cc1 (stereo unspecified) was read as INS promoter inh 18, PKD1 kinase inh -3, RGS16-Gao HTS 89, HSV augment inactive, INS promoter inh cell count 136 and HSV augment primary fold 0.9.
`CCOC(=O)CCS(=O)(=O)c1ccc(-c2ccc(S(=O)(=O)CCC(=O)OCC)cc2)cc1` gave GALR2 ag -1.3, PKD1 kinase inh -3, RGS16-Gao HTS 178, HSV augment inactive and HSV augment primary fold 0.82.
`CCCn1c(C(O)c2ccc(OCC)cc2)nc2ccccc21` (stereo unspecified) gave GALR2 ag -4.0, PKD1 kinase inh -12, RGS16-Gao HTS 113, HSV augment inactive and HSV augment primary fold 0.95.
Screening CC1=CC(=O)C=C(C)C1=NOS(=O)(=O)c1ccccc1 returned INS promoter inh inactive, GALR2 ag -3.5, PKD1 kinase inh -2, RGS16-Gao HTS 98, HSV augment inactive, INS promoter inh cell count 2 and HSV augment primary fold 0.67.
`NNc1nc2sc3c(c2c(=O)n1C1CCCCC1)CCN(Cc1ccccc1)C3` gave RGS16-Gao HTS 101, HSV augment inactive and HSV augment primary fold 1.
CCOC(=O)N1CCN(C(=O)CSc2nc(-c3cccc(C)c3)ns2)CC1 was read as INS promoter inh 43, GALR2 ag 0.6, PKD1 kinase inh -3, RGS16-Gao HTS 112, HSV augment inactive, INS promoter inh cell count 70 and HSV augment primary fold 0.99.
Screening COc1ccc(CN(C(=O)c2cc3ccccc3oc2=O)C2CCCCC2)cc1OC returned INS promoter inh 46, GALR2 ag -0.2, PKD1 kinase inh -4, RGS16-Gao HTS 103, HSV augment inactive, INS promoter inh cell count 120 and HSV augment primary fold 0.77.
`CCc1c(C)c2ccc(O)c(CN(C)C)c2oc1=O` gave INS promoter inh 2, GALR2 ag 1.9, PKD1 kinase inh 3, RGS16-Gao HTS 130, HSV augment inactive, INS promoter inh cell count 119 and HSV augment primary fold 1.1.
Screening Clc1ncc(CSc2ccccc2)s1 returned PKD1 kinase inh 1, RGS16-Gao HTS 100, HSV augment inactive and HSV augment primary fold 1.
Screening CN(C)S(=O)(=O)c1ccc(C(=O)Nc2ccccc2F)cc1 returned INS promoter inh -7, GALR2 ag -0.1, PKD1 kinase inh -5, RGS16-Gao HTS 107, HSV augment inactive, INS promoter inh cell count 26 and HSV augment primary fold 1.1.
O=C(NCC(=O)N(Cc1cccs1)C(C(=O)NC1CCCC1)c1ccco1)c1cccs1 (stereo unspecified) was read as GALR2 ag -2.6, PKD1 kinase inh -4, RGS16-Gao HTS 88, HSV augment inactive and HSV augment primary fold 1.1.
O=C(CNC(=O)c1cccs1)N/N=C/c1ccc(O)cc1O was read as INS promoter inh 55, PKD1 kinase inh -1, RGS16-Gao HTS 93, HSV augment inactive, INS promoter inh cell count 95 and HSV augment primary fold 0.97.
COCCNC(=O)CN(C(=O)CCC(=O)Nc1cc(C)on1)c1ccccc1C was read as INS promoter inh 33, GALR2 ag -0.9, PKD1 kinase inh 2, RGS16-Gao HTS 105, HSV augment inactive, INS promoter inh cell count 79 and HSV augment primary fold 1.1.
`COc1ccc(OC)c(NC(=O)C(Sc2ccccc2)c2ccccc2)c1` (stereo unspecified) gave INS promoter inh -37, GALR2 ag -3.0, PKD1 kinase inh -13, RGS16-Gao HTS 87, HSV augment inactive, INS promoter inh cell count 93 and HSV augment primary fold 1.1.
`O=C(CSc1nc2scc(-c3ccccc3)c2c(=O)[nH]1)N1CCCCC1` gave INS promoter inh 14, PKD1 kinase inh 7, RGS16-Gao HTS 102, HSV augment inactive, INS promoter inh cell count 104 and HSV augment primary fold 1.1.
CCN(CC)S(=O)(=O)c1ccc(C(=O)NCc2nnc(SCC(=O)OC)n2C)cc1 was read as GALR2 ag -1.0, PKD1 kinase inh 2, RGS16-Gao HTS 100, HSV augment inactive and HSV augment primary fold 0.81.
Screening S=C(Nc1ccc(Br)cc1Cl)N1CCC2(CC1)OCCO2 returned PKD1 kinase inh 1, RGS16-Gao HTS 102, HSV augment inactive and HSV augment primary fold 0.89.
C=CCn1c(C)cc(C(=O)CSc2nnc3c(Cl)cc(Cl)cn23)c1C was read as INS promoter inh 0, GALR2 ag -1.9, PKD1 kinase inh 4, RGS16-Gao HTS 99, HSV augment inactive, INS promoter inh cell count 156 and HSV augment primary fold 1.1.
Screening CS(=O)(=O)N1CCc2cc(S(=O)(=O)N3CCCCC3)ccc21 returned INS promoter inh 55, PKD1 kinase inh -5, RGS16-Gao HTS 105, HSV augment inactive, INS promoter inh cell count 102 and HSV augment primary fold 0.98.
For Cc1ccc2[nH]c(=O)c(CN(Cc3ccco3)S(=O)(=O)c3c(C)ccc4nsnc34)cc2c1 the results were GALR2 ag -0.5, PKD1 kinase inh -3, RGS16-Gao HTS 104, HSV augment inactive and HSV augment primary fold 0.65.
Screening Cc1ccc(/C=C/C(=O)c2ccc(N3CCOCC3)cc2)s1 returned INS promoter inh -19, PKD1 kinase inh -7, RGS16-Gao HTS 38, HSV augment inactive, INS promoter inh cell count 88 and HSV augment primary fold 1.2.
For CC(C)c1ccc2[nH]c3nc(SCC(=O)N4CCOCC4)nnc3c2c1 the results were PKD1 kinase inh 3, RGS16-Gao HTS 101, HSV augment inactive and HSV augment primary fold 0.93.

No enrichment for hits (roughly 1.2% active in at least one column).
